B2AR ag = beta2AR agonists driving receptor internalization, primary screen, cell-based, FAP fluorogen, flow cytometry; response, % (no concentration beside the values); AID 504454, 2011; Am2.2-beta2AR cells; reference of the scale not given here; hit rate 0.43% among 340,000; Beta-2 adrenergic receptor (Homo sapiens), P07550;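 active = response above a set limit, near 3 SD of response in nonfluorescent compounds, cut at about 42% in these data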;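 also: stock transfer was 100 nL into about 11 µL; a reference agonist was the positive control; negative values mostly stem from fluorescent compounds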
Target sequence (P07550 whole entry, looked up): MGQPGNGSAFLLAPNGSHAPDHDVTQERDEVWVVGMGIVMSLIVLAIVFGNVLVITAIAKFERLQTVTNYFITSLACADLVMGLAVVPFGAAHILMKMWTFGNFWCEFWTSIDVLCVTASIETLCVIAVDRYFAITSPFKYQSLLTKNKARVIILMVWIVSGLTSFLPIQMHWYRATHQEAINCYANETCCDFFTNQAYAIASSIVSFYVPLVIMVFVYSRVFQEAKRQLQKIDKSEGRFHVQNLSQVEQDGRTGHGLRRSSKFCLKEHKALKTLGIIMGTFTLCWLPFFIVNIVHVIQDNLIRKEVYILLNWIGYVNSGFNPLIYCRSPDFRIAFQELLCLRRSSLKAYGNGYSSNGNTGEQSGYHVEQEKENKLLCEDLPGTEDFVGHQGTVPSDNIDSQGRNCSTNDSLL
Bfl-1 A1 inh = caspase 3/7 activation in MEF A1-2A-BIM cells, primary screen, A1 inhibitor project, cell-based, luminescence, HTS; AID 2462, 2010; caspase activation, % (concentration not given with the values); hit rate 0.066% among 330,000; Caspase-Glo 3/7 luminescence, 3 h; percent of clofoctol response, vehicle zero;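 active = over half of replicate activation scores above 10%, or exactly half above 10 with the replicate mean above 10; inconclusive = replicate mean below 10 yet half the replicates above 10; inactive = over half of replicates below 10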;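 also: wells of about 30 µL received 50 nL stock; many hits fall short of the cut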
Vif A3G = inhibitors of Vif binding to APOBEC3G peptide, primary screen, biochemical, TR-FRET, GST-Vif 1-94, biotin-A3G peptide, dose response retest (AID 1117319). hit rate 0.57% among 260,000. inhibition, %, or IC50 in µM where a hit was titrated. TR-FRET GST-Vif / biotin-A3G peptide binding; higher % means a stronger effect; test concentration not given here; strong numbers were not always called active. Virion infectivity factor (Human immunodeficiency virus type 1 group M subtype B (isolate …;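 active = above the screen mean plus three standard deviations and confirmed in dose response; inconclusive = results disagree or hit not tested in dose response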;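 also: Vif residues 1-94 fused to GST binding biotinylated APOBEC3G peptide 110-148; 0% = full assay without inhibitor and 100% = GST in place of GST-Vif; retest series ran down from 100 µM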
UCH37 DUB inh = inhibitors of human UCH37 deubiquitinase, primary screen, biochemical, Ub-AMC cleavage, fluorescence. Ubiquitin carboxyl-terminal hydrolase isozyme L5 (Homo sapiens), Q9Y5K5. AID 588478, 2011. hit rate 0.33% among 330,000. inhibition, % (concentration not given with the values). purified proteasome/UCH37;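 active = mean of two replicates above 20%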;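 also: 0% = compound-free wells with enzyme and 100% = wells lacking proteasome; stock transfer was 100 nL into about 20 µL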
Target sequence (Q9Y5K5 whole entry, looked up): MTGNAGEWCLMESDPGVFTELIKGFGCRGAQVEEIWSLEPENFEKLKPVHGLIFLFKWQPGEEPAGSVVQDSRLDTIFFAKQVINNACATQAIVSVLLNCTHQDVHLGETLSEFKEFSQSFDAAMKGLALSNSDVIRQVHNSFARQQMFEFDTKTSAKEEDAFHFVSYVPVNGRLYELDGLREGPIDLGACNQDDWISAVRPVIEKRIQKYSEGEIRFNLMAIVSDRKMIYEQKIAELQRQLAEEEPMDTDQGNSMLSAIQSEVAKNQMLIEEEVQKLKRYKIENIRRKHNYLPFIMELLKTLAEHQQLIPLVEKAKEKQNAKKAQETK
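Schedule: 30 min plus 25 min, room temperature / Material: human UCH37 within purified proteasomes / Technique: AMC fluorescence intensity at 355/460 nm / Buffer or medium: pH 7.4 Tris-HCl (50 mM) with ovalbumin, ATP-MgCl2, DTT / Controls: wells without proteasome as full block, compound-free enzyme plus substrate as uninhibited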
Ecoli growth = E. coli growth inhibition, primary screen, OD600; AID 1053175, 2014; OD600 absorbance (test concentration not listed); hit rate 0.21% among 330,000; Escherichia coli growth, 23 h; active compounds read low;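 active = OD600 absorbance below the run mean of sample wells minus 3.6 SD, in any replicate, cut at about 0.56 in these data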;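 also: stock transfer was 300 nL into about 60 µL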
LANA-H2B inh = blockers of LANA interaction with H2A/H2B – biochemical, FP readout, HTS, primary screen. hit rate 0.6% among 320,000. Protein LANA1 (Human herpesvirus 8 type P (isolate GK18)), Q9QR71. AID 2629, 2010. cell-free LANA-H2A/H2B peptide, fluorescence polarization. inhibition, % (no concentration beside the values); in the data active = inhibition mostly above about 10%, no sharp cut-off; inactive = mostly below about 6.7%;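 also: stock transfer was 7.5 nL into about 10 µL; 0% = median of vehicle wells and 100% = median of positive control wells; one replicate is shown; the record names a cut of 25% in any replicate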
HNF4A DNA FP = change in binding of human HNF4A to DNA, primary screen, biochemical, fluorescence polarization, FITC-DNA; Hepatocyte nuclear factor 4-alpha (Homo sapiens), P41235; 1 h; activity change, % at 10 µM; hit rate 0.3% among 360,000; in the data active = activity change above about 30%, passing the limit was not always enough;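 also: controls were the assay level and a saturating level of protein; the project sought stronger binding though the title names inhibitors; some compounds called inactive have numbers as strong as hits; positive values seem to mean higher polarization but the record does not say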
An asterisk follows results filed as active; ? = inconclusive; · = not tested or not shown; & = joins results of further samples.

nr	SMILES	B2AR ag	Bfl-1 A1 inh	Vif A3G	UCH37 DUB inh	Ecoli growth	LANA-H2B inh	HNF4A DNA FP
1	COCCN(CCOC)S(=O)(=O)c1ccc(C(=O)Nc2ccncc2)cc1	-6	1.0	-4%	7.3	0.68	-3.0	4.5
2	CN(Cc1ccccc1)C(=O)COC(=O)Cc1ccc(Cl)cc1	-8	0.1	-5%	0.9	0.71	1.8	6.9
3	COc1ccc(OC)c(S(=O)(=O)N2CCC(C(=O)N3CCOCC3)CC2)c1	2	0.9	7%	-0.1	0.68	3.9	0.8
4	CCC(C(=O)NCCCN(CC)Cc1ccccc1)n1nc(C)c2sc3ccccc3c2c1=O (stereo not given)	7	-0.5	·	-3.7	0.69	-2.6	0.8
5	O=C(CN1C(=O)C2CCCCC2C1=O)Nc1nc2ccc(F)cc2s1 (stereo not given)	-4	0.7	-3%	-0.4	0.62	1.5	1.5
6	Cc1ccc2cc(C#N)c(SCC(=O)N3CCCc4ccccc43)nc2c1	4	0.1	·	-3.0	0.72	-4.9	1.6
7	Cn1c(C(=O)NCCCN2CCCC2=O)cc2c(=O)n(C)c3ccccc3c21	1	-0.6	5%	-2.9	0.74	2.9	1.3
8	Cc1ccccc1CS(=O)(=O)Cc1ccc(C(=O)NCC2CCCO2)o1 (stereo not given)	1	0.5	14%	0.7	0.71	0.4	-0.5
9	CCc1ccccc1NCC(=O)Nc1ccc(Cl)c(C(F)(F)F)c1	17	0.0	·	2.5	0.58	0.6	1.4
10	O=[N+]([O-])c1ccccc1-c1cc(-c2cc(Cl)ccc2O)n[nH]1	2	-0.1	23%	4.6	0.6	2.9	-3.0
11	O=C(c1cccnc1)N1CCN(Cc2cccc(F)c2)CC1	5	0.7	1%	5.7	0.74	1.2	4.8
12	NC(=O)NC(=O)COC(=O)c1cccc(S(=O)(=O)N2CCCCCC2)c1	0	0.8	·	2.0	0.7	-1.8	2.8
13	O=C(NCCN1CCOCC1)c1ccc(CS(=O)(=O)c2ccc(Br)cc2)o1	3	-0.5	-7%	1.2	0.71	-7.9	-2.2
14	Cc1cc(NC(=O)CSc2nnc(-c3cccnc3)n2N)no1	-4	-0.3	8%	0.0	0.72	·	0.6
15	O=C(Nc1nc2ccc(S(=O)(=O)N3CCCCC3)cc2s1)c1ccncc1	2	-0.1	8%	5.8	0.71	-1.7	26
16	CC(C)(C)c1[nH]nc2c1C(c1ccoc1)C(C#N)=C(N)O2 (stereo not given)	0	0.8	-4%	4.8	0.71	-2.9	-1.5
17	N#CC1=C2SCN(Cc3ccccc3)CN2C(=O)CC1c1ccc2c(c1)OCO2 (stereo not given)	33	0.7	8%&-5%	5.5	0.71	-5.3	3.8
18	O=C1c2ccc3c4c(ccc(c24)C(=O)N1c1cccc(O)c1)CC3	0	-0.2	22%	-40	0.67	1.1	1.2
19	Cc1cc(C)n(CC(=O)NNC(=O)c2ccc(NC(=O)CC#N)cc2)n1	-13	0.1	91µM*	2.5	0.67	0.5	0.4
20	COc1ccccc1C1=Nn2c(COc3ccccc3)nnc2SC1	·	0.3	?	1.3	0.67	-0.6	·
21	O=C(Nc1ccccc1)c1ccc(=O)n(Cc2cccc(Cl)c2)c1	-12	-0.6	-4%	3.0	0.63	1.5	0.2
22	COc1ccc(N2CCN(S(=O)(=O)CCNC(=O)c3ccco3)CC2)cc1	0	0.0	2%	1.3	0.63	-6.1	-3.3
23	Cc1cccnc1NC(=S)NC(=O)c1cccs1	-1	-0.7	3%	2.2	0.74	2.7	3.3
24	CCOc1cccc(/C=N/N2C(=O)CSC2=S)c1O	1	-1.2	·	·	·	9.4	5.9
25	O=C(Nc1ccc(S(=O)(=O)NCCc2ccccc2)cc1)c1ccc(Br)o1	0	0.5	-8%&1%	2.1	0.67	0.2	-0.3
26	Cc1ccc(NC(=O)c2ccc(Cl)cc2Cl)cc1O	6	-0.9	-7%	4.6	0.62	-1.3	0.9
27	CC(C)C[C@H]1CNC(=S)N1CC1CCCN1C[C@H](CC(C)C)N1C[C@H](CC(C)C)N(CCc2ccccc2)C1=S (stereo not given in full)	4	·	-1%	·	·	·	-0.5
28	O=C(NCCCCc1ccccc1)c1cccc(NC(=O)C2CCCC2)c1	-2	·	-7%	·	·	·	4.8
29	COc1ccccc1CC(=O)Nc1ccc(NC(=O)c2cccs2)cc1	-15	1.3	-6%	-6.2	0.73	-1.5	3.4
30	Cc1cc(NC(=O)CSC2=Nc3ccccc3C3=NC(Cc4ccccc4)C(=O)N23)n[nH]1 (stereo not given)	-6	-1.7	2%	1.9	0.72	-2.1	-4.7
31	Cc1cccc(N2CC(C(=O)Nc3ccccc3N3CCOCC3)CC2=O)c1C (stereo not given)	4	-1.3	-3%	1.4	0.66	2.4	3.1
32	CCOC(=O)C(C)N1C(=O)S/C(=C\c2ccc(-c3ccccc3C(=O)O)o2)C1=O (stereo not given)	4	0.7	11µM*	-2.5	0.65	-5.8	-35
33	COC(=O)CSc1nnc2n(C3CCCCC3)c(=O)c3c4c(sc3n12)CCCC4	-11	0.7	4%	1.5	0.64	-9.6	-2.7
34	O=C(CCCN1C(=O)S/C(=C\C=C\c2ccccc2)C1=O)Nc1ccc(C(=O)O)cc1	0	-0.6	-1%	14	0.66	3.5	-1.7
35	O=C(NCCS(=O)(=O)NCc1ccccc1Cl)c1ccc2c(c1)OCO2	4	1.6	6%	4.1	0.69	-0.8	2.4
36	O=C(COc1ccc(Cl)cc1)N(Cc1ccccc1)c1ccccn1	0	0.6	-4%	2.0	0.74	3.8	-2.0
37	Cc1cc(F)ccc1NCC(=O)Nc1ccccc1Br	6	-0.1	16%	-0.9	0.67	-2.4	-2.2
38	Cc1nc2c(Br)c(C)nn2c2c1CCC2	-2	0.0	3%	-1.4	0.66	-2.3	-2.1
39	O=C(NCC(=O)N1CCCCCC1)c1ccc(OC(F)F)cc1	-5	-0.2	·	0.8	0.71	4.0	0.0
40	CCC(C)(C)NC(=O)C(c1ccc(OC)cc1)N(C(=O)CCC(=O)Nc1cc(C)on1)c1cc(OC)ccc1OC (stereo not given)	2	-0.1	·	-1.7	0.66	2.5	-2.8
41	Cn1cccc1C(=O)C(=O)Nc1ccccc1	-3	-6.9	13%	6.2	0.68	2.7	0.1
42	COc1ccc(-n2nc(C(=O)NCC(=O)N3CCN(C)CC3)c3ccccc3c2=O)cc1	-2	0.2	·	0.1	0.71	-6.7	2.2
43	COc1ccccc1NC(=O)C12CC3CC(C1)CC(c1ccc(C)cc1)(C3)C2	2	-0.1	78%	2.0	0.69	4.0	-3.4
44	O=C(Nc1cc(Cl)ccc1N1CCOCC1)c1ccc(=O)[nH]c1	3	0.2	3%	1.0	0.69	-3.0	4.5
45	Cc1ccc(S(=O)(=O)NC(CC(C)C)C(=O)N2CCN(C/C=C/c3ccccc3)CC2)cc1 (stereo not given)	-2	-0.3	70%	-1.2	0.68	-1.5	-0.7
46	Cc1[nH]c2ccccc2c1C1=CC(=O)C=CC1=O	32	·	4.2µM*	0.7	0.67	·	0.2
47	CCN1CCN(C(=O)c2[nH]c3ccc(OC)cc3c2C)CC1	-1	-0.7	-3%	-4.6	0.64	1.1	-0.1
48	CC(Oc1ccc(F)cc1)C(=O)Nc1sc2c(c1C(=O)NCc1cccnc1)CCCC2 (stereo not given)	-5	0.1	22%	2.7	0.75	3.5	1.6
49	Cc1ccc(C)c(OCCC(=O)OCC(=O)Nc2cccnc2Cl)c1	1	-0.8	0%	3.1	0.74	1.0	-1.0
50	N#Cc1ccsc1NC(=O)CN(Cc1ccccc1)Cc1ccccc1	5	-0.6	·	1.4	0.68	-2.5	-2.3

(further entries)
nr	SMILES	B2AR ag	Bfl-1 A1 inh	Vif A3G	UCH37 DUB inh	Ecoli growth	LANA-H2B inh	HNF4A DNA FP
51	O=C(Cn1nnc(-c2ccccc2)n1)NNC(=O)c1ccc(Br)cc1	2	1.4	3%	1.7	0.71	-0.3	-1.5
52	CCN1C(=O)c2ccccc2Sc2ccc(C(=O)NC(C)C)cc21	-6	-0.2	2%	2.3	0.69	-1.6	-1.4
53	O=C(CCNS(=O)(=O)c1ccc(Br)cc1)NC1CCCCC1	5	-0.3	·	0.1	0.7	-3.4	-1.5
54	CCCCNC(=S)Nc1ccc(Cl)cc1	-1	0.9	0%	2.9	0.65	-0.3	6.3
55	O=C(O)c1ccc(-n2c(-c3ccc(Br)cc3)n[nH]c2=S)cc1	0	0.9	-1%	4.8	·	-1.6	0.2
56	CCN(CC(=O)Nc1cc(Cl)cc(Cl)c1)CC(=O)NC1CCS(=O)(=O)C1 (stereo not given)	0	0.4	-6%	3.8	0.68	-1.1	-1.9
57	O=C(Cn1cnc([N+](=O)[O-])c1)c1ccc(F)cc1	2	0.2	·	0.2	0.69	0.0	-1.0
58	COc1ccc(NC(=O)c2nc[nH]c2C(=O)N2CCC(C)CC2)cc1	-8	-1.7	-9%	-0.1	0.65	-0.8	-0.1
59	COc1ccc(-c2nnc(SCC(=O)NC3CCCc4ccccc43)n2N)cc1 (stereo not given)	-2	0.1	2%	3.8	0.69	-2.1	12
60	CC(OC(=O)Cc1c[nH]c2ccccc12)C(=O)NC1CCCCC1C (stereo not given)	1	-1.2	-3%	2.3	0.7	11	0.8
61	CCN(CC)S(=O)(=O)c1ccc2[nH]cc(C(=O)NCCN3CCCCC3C)c(=O)c2c1 (stereo not given)	8	0.4	18%	-8.7	0.63	2.4	-2.2
62	COc1ccc(/C=N/NC(=O)c2ccc(Br)cc2)c(OC)c1	-3	0.9	-10%	·	·	2.1	-2.6
63	CCCSc1nc2cc(OC)c(OC)cc2c(=N)n1CCCN1CCOCC1	6	-0.2	-1%	0.9	0.7	5.5	1.6

Screening results from PubChem BioAssay.
